# Source: PubChem BioAssay
# NOMO-1 viab: STK33 inhibitor candidate reducing NOMO-1 cell viability. NOMO-1 AML viability, CellTiter-Glo luminescence, 72 h. inhibition, % (concentration not given with the values). 37,000 compounds, 7.5% hits. AID 2330;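 active means most replicates above 80%; inconclusive means exactly half above 80%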;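 further: wells of about 30 µL received 25 nL stock; 0% = median of vehicle wells and 100% = reference inhibitor level; the first replicate is given; inactives centre near 10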
# * hit, by the source's call; ? = inconclusive. This is a subset; the hit share may differ from the screen's.
SMILES,NOMO-1 viab
C[C@@H]1CCCCO[C@@H](CN(C)S(=O)(=O)c2ccc(Cl)cc2)[C@@H](C)CN([C@H](C)CO)C(=O)c2cc(NC(=O)Nc3ccc(F)cc3)ccc2O1,42.8
Cc1ccc(N(CC(=O)Nc2cc(Cl)ccc2C)S(C)(=O)=O)c(C)c1,14.3
Cc1noc(C)c1S(=O)(=O)N(C)C[C@@H]1Oc2c(NS(=O)(=O)c3cn(C)cn3)cccc2C(=O)N([C@H](C)CO)C[C@H]1C,-22.9
O=C(c1cccs1)n1nc(-c2ccccc2)nc1NCc1ccco1,37.3
CCOC(=O)c1nnn2c1nc(N1CCN(c3ccccc3)CC1)c1ccccc12,100.5*
COc1ccc(C2CC(=O)c3ccc(OC)cc3O2)cc1 (centres undefined),-7.2
C[C@H]1CN([C@@H](C)CO)C(=O)c2cccc(NS(C)(=O)=O)c2O[C@H]1CN(C)Cc1ccc2c(c1)OCO2,11.0
COc1ccc(C(C)=O)cc1CSc1nc2cc(C)c(C)cc2[nH]1,-27.5
CCOC(=O)CNc1nc2ccccc2n2cnnc12,20.9
COC(=O)c1c(NC(=S)Nc2ccc(S(=O)(=O)NC34CC5CC(CC(C5)C3)C4)cc2)sc2c1CCC2,62.4
C[C@@H]1CN([C@H](C)CO)C(=O)c2cccc(NS(=O)(=O)c3ccccc3)c2O[C@H]1CN(C)S(=O)(=O)c1cccs1,-2.7
Cc1ccc(S(=O)(=O)Nc2cccc3c2O[C@@H](CN(C)Cc2ccc(Cl)c(Cl)c2)[C@H](C)CN([C@H](C)CO)C3=O)cc1,25.7
Cc1ccc(S(=O)(=O)N(C)C[C@@H]2Oc3ccc(NC(=O)Nc4ccccc4)cc3CC(=O)N([C@@H](C)CO)C[C@@H]2C)cc1,124.3*
Cc1ccc(NC(=O)N(C2=NCC(C)(C)S2)c2ccc(F)c(Cl)c2)cc1,-4.4
O=c1[nH]c(=O)n(Cc2ccco2)c2c1C(C(F)(F)F)(C(F)(F)F)N=C(CCc1ccccc1)N2,?
C[C@@H]1CN([C@H](C)CO)C(=O)Cc2cc(NC(=O)Nc3ccc(C(F)(F)F)cc3)ccc2O[C@@H]1CN(C)Cc1ccc(C(=O)Nc2ccccc2N)cc1,138.3*
C[C@H]1CN([C@@H](C)CO)C(=O)c2cccc(NC(=O)c3cnccn3)c2O[C@@H]1CN(C)S(=O)(=O)c1ccccc1,-20.4
Cc1ccc(S(=O)(=O)Nc2ccc3c(c2)CC(=O)N([C@@H](C)CO)C[C@H](C)[C@@H](CN(C)S(=O)(=O)c2ccccc2)O3)cc1,2.2
Cc1c(Cl)cccc1NC(=O)CN1CCN(CCO)CC1,5.5
O=C(CCc1nc(-c2ccccc2F)no1)Nc1ccccc1[N+](=O)[O-],-9.3
CCOc1ccc(C2(C)CC(C)(C)Nc3ccccc32)cc1 (centres undefined),113.6*
O=C(CSc1nnc(-c2cccc(Cl)c2)n1-c1ccccc1)Nc1ccccc1-c1ccccc1,142.0*
O=C(O)CSc1c(-c2cccs2)[nH]c2ccccc12,32.8
CCc1ccccc1NC(=O)CSc1nnc(-c2ccccc2)n1C,1.0
C[C@H]1CN([C@@H](C)CO)C(=O)c2cccc(NC(=O)c3ccc(-c4nccs4)cc3)c2O[C@H]1CN(C)Cc1ccccc1,36.5
C[C@@H]1CN([C@H](C)CO)C(=O)c2cc(NS(=O)(=O)c3cccs3)ccc2O[C@H]1CN(C)Cc1ccc(Oc2ccccc2)cc1,-6.2
O=C(CSc1ccc(F)cc1Cl)C12CC3CC(CC(C3)C1)C2,38.9
C[C@@H]1CN([C@@H](C)CO)C(=O)c2cccc(NS(=O)(=O)c3cn(C)cn3)c2O[C@H]1CN(C)CC1CCCCC1,1.5
OC(CNCc1ccccc1)Cn1c2ccccc2c2ccccc21 (centres undefined),111.3*
COc1ccc(S(=O)(=O)Nc2ccc3c(c2)CC(=O)N([C@H](C)CO)C[C@H](C)[C@H](CN(C)Cc2ccc(Oc4ccccc4)cc2)O3)cc1,105.6*
C[C@@H]1CN([C@H](C)CO)C(=O)Cc2cc(NC(=O)Cc3ccccc3)ccc2O[C@@H]1CN(C)Cc1ccc2c(c1)OCO2,-7.3
CNC[C@@H]1Oc2ccc(NS(=O)(=O)c3ccc(F)cc3)cc2CC(=O)N([C@H](C)CO)C[C@H]1C,-2.6
Cc1ccc(S(=O)(=O)N(C)C[C@H]2Oc3ccc(NC(=O)NC(C)C)cc3CC(=O)N([C@@H](C)CO)C[C@H]2C)cc1,5.4
C[C@H](CO)N1C[C@H](C)[C@H](CN(C)S(=O)(=O)c2cn(C)cn2)Oc2ccc(NC(=O)CCCN(C)C)cc2C1=O,9.8
O=C(CC[n+]1ccc(/C=N/O)cc1)NCc1ccccc1,3.6
COc1ccc(NC(=O)Nc2cccc3c2O[C@@H](CN(C)S(=O)(=O)c2cccs2)[C@H](C)CN([C@@H](C)CO)C3=O)cc1,3.6
C[C@@H]1CN([C@@H](C)CO)C(=O)Cc2cc(NS(=O)(=O)c3ccc(F)cc3)ccc2O[C@@H]1CN(C)S(=O)(=O)c1cn(C)cn1,8.5
C[C@H](CO)N1C[C@H](C)[C@@H](CN(C)S(=O)(=O)c2ccc(Cl)cc2)Oc2c(NS(=O)(=O)c3ccc(Cl)cc3)cccc2C1=O,13.7
CC(C)NC(=O)Nc1ccc2c(c1)CC(=O)N([C@@H](C)CO)C[C@@H](C)[C@@H](CN(C)CC1CCCCC1)O2,25.6
COc1ccc(S(=O)(=O)Nc2cccc(N(C)S(C)(=O)=O)c2)cc1OC,22.4

# Pulled by compound from above (three):
SMILES,NOMO-1 viab
COc1ccc(C2CC(=O)c3ccc(OC)cc3O2)cc1 (centres undefined),-7.2
Cc1noc(C)c1S(=O)(=O)N(C)C[C@@H]1Oc2c(NS(=O)(=O)c3cn(C)cn3)cccc2C(=O)N([C@H](C)CO)C[C@H]1C,-22.9
C[C@@H]1CN([C@H](C)CO)C(=O)Cc2cc(NC(=O)Cc3ccccc3)ccc2O[C@@H]1CN(C)Cc1ccc2c(c1)OCO2,-7.3

# The listing continues:
SMILES,NOMO-1 viab
C[C@@H]1CN([C@H](C)CO)C(=O)Cc2cc(NC(=O)Cc3cn(C)c4ccccc34)ccc2O[C@@H]1CN(C)C,7.6
Cc1ccc(S(=O)(=O)N(C)C[C@@H]2Oc3c(NC(=O)C4CC4)cccc3C(=O)N([C@@H](C)CO)C[C@@H]2C)cc1,15.7
Cc1ccc(NC(=O)CSc2nnc(-c3ccc([N+](=O)[O-])cc3)n2-c2ccccc2)cc1C,43.9
COc1ccc(S(=O)(=O)Nc2cccc3c2O[C@H](CN(C)C(=O)Nc2c(C)noc2C)[C@H](C)CN([C@H](C)CO)C3=O)cc1,20.4
C[C@@H]1CN([C@@H](C)CO)C(=O)c2cc(NC(=O)Nc3ccc4c(c3)OCO4)ccc2O[C@H]1CN(C)C(=O)Nc1ccc(F)cc1,2.0
C[C@@H]1CN([C@H](C)CO)C(=O)c2cccc(NC(=O)NC3CCCCC3)c2O[C@H]1CN(C)C,9.0
O=C(O)CCCC(=O)Nc1ccc(F)cc1,13.9
COc1ccc(NC(=O)Nc2ccc3c(c2)CC(=O)N([C@@H](C)CO)C[C@H](C)[C@@H](CN(C)C)O3)cc1,18.3
COc1ccccc1N(CC(=O)O)S(=O)(=O)c1ccccc1,-3.5
C[C@H]1CN([C@@H](C)CO)C(=O)c2cc(NS(=O)(=O)c3ccc(F)cc3)ccc2O[C@H]1CN(C)Cc1ccc(C(=O)O)cc1,3.6
C[C@H]1CN([C@@H](C)CO)C(=O)c2cc(NC(=O)Cc3cn(C)c4ccccc34)ccc2O[C@H]1CN(C)Cc1ccc2c(c1)OCO2,72.9
Cc1ccc(S(=O)(=O)N(C)C[C@@H]2Oc3ccc(N(C)C)cc3C(=O)N([C@@H](C)CO)C[C@@H]2C)cc1,-5.9
O=[N+]([O-])c1ncn(Cc2ccccn2)n1,-16.7
C[C@H](CO)N1C[C@H](C)[C@H](CN(C)C(=O)NC2CCCCC2)Oc2ccc(NS(=O)(=O)c3ccc(Cl)cc3)cc2CC1=O,-8.0
C[C@@H]1CN([C@H](C)CO)C(=O)Cc2cc(NS(=O)(=O)c3cccs3)ccc2O[C@@H]1CN(C)Cc1ccc(Oc2ccccc2)cc1,117.9*
C[C@H](CO)N1C[C@H](C)[C@H](CN(C)CC2CC2)Oc2c(NS(=O)(=O)c3ccc(Cl)cc3)cccc2C1=O,5.0
C[C@H]1CN([C@@H](C)CO)C(=O)c2cc(NC(=O)Cc3cn(C)c4ccccc34)ccc2O[C@H]1CN(C)C,8.1
COc1ccc(S(=O)(=O)Nc2ccc3c(c2)C(=O)N([C@H](C)CO)C[C@H](C)[C@H](CN(C)Cc2ccc(Oc4ccccc4)cc2)O3)cc1,31.7
CSc1ccccc1NC(=O)CN(c1ccc(I)cc1)S(C)(=O)=O,22.8
Cc1noc(C)c1S(=O)(=O)N(C)C[C@H]1Oc2ccc(NC(=O)CCC(F)(F)F)cc2CC(=O)N([C@@H](C)CO)C[C@H]1C,14.0
C[C@@H]1CN([C@@H](C)CO)C(=O)c2cccc(NC(=O)Nc3ccc4c(c3)OCO4)c2O[C@H]1CN(C)CC1CC1,26.1
C[C@H](CO)N1C[C@H](C)[C@@H](CN(C)CC2CC2)Oc2c(NS(=O)(=O)c3cn(C)cn3)cccc2C1=O,-2.4
CCOC(=O)C1=C(C)Nc2ncnn2C1c1ccccc1[N+](=O)[O-] (centres undefined),-18.1
CNC[C@H]1Oc2c(NS(C)(=O)=O)cccc2C(=O)N([C@H](C)CO)C[C@H]1C,-10.4
C[C@H]1CN([C@@H](C)CO)C(=O)Cc2cc(N(C)C)ccc2O[C@H]1CN(C)Cc1ccc(-c2ccccc2)cc1,13.5
COc1ccc(NC(=O)CSc2nc3scc(C)c3c(=O)[nH]2)cc1,-5.8
Cc1noc(C)c1NC(=O)N(C)C[C@@H]1Oc2ccc(NC(=O)NC3CCCCC3)cc2C(=O)N([C@H](C)CO)C[C@H]1C,-0.6
Cc1cc(=O)[nH]c(SCCCOc2ccc(F)cc2)n1,2.3
COc1ccc(S(=O)(=O)N(C)C[C@@H]2Oc3ccc(NS(=O)(=O)c4c(C)noc4C)cc3CC(=O)N([C@H](C)CO)C[C@@H]2C)cc1,5.8
CS(=O)(=O)c1ccc2nc(NC(=O)C3CCCO3)sc2c1 (centres undefined),30.5
CC(=O)NC(Nc1ccccc1)(C(F)(F)F)C(F)(F)F,-8.8
CC(Sc1ncn[nH]1)C(=O)Nc1ccc(Cl)cc1 (centres undefined),16.1
COc1ccc(NC(=O)Nc2cccc3c2O[C@H](CN(C)S(=O)(=O)c2ccc(F)cc2)[C@H](C)CN([C@H](C)CO)C3=O)cc1,21.7
C[C@@H]1CN([C@H](C)CO)C(=O)Cc2cc(NC(=O)CCC(F)(F)F)ccc2O[C@H]1CN(C)C(=O)Nc1cccc2ccccc12,9.7
S=C(c1ccccc1)N1CCN(Cc2ccccc2)CC1,13.2
C[C@H](CO)N1C[C@H](C)[C@H](CN(C)C(=O)Nc2cccc3ccccc23)Oc2c(NS(=O)(=O)c3ccc(F)cc3)cccc2C1=O,47.2
Cc1noc(C)c1S(=O)(=O)Nc1cccc2c1O[C@@H](CN(C)Cc1ccc(-c3ccccc3)cc1)[C@@H](C)CN([C@H](C)CO)C2=O,-2.9
S=C(Nc1ccc2[nH]ccc2c1)NC1CCCCC1,6.8
C[C@H](CO)N1C[C@H](C)[C@@H](CN(C)Cc2ccc(C(=O)O)cc2)Oc2ccc(NC(=O)NC3CCCCC3)cc2C1=O,1.0
COc1cc(NC(=O)C(=O)NCCN2CCNCC2)c(OC)cc1Cl,9.3
O=C1C(=O)N(CCN2CCOCC2)C(c2ccc(Cl)cc2)C1C(=O)c1cccs1 (centres undefined),-11.4
C[C@@H]1CN([C@@H](C)CO)C(=O)c2cc(NC(=O)Cc3ccccc3)ccc2O[C@@H]1CN(C)C,-8.2
C[C@H]1CN([C@@H](C)CO)C(=O)c2cc(NC(=O)Cc3ccccc3)ccc2O[C@H]1CN(C)S(=O)(=O)c1cn(C)cn1,-3.2
CCn1c(SCc2nc3ccccc3[nH]2)nc2sc(C)c(C)c2c1=O,22.6
C[C@H]1CN([C@@H](C)CO)C(=O)c2cc(NS(=O)(=O)c3cn(C)cn3)ccc2O[C@@H]1CN(C)Cc1ccc(C(F)(F)F)cc1,10.3
COc1ccc(CN(C)C[C@H]2Oc3ccc(NC(=O)CCN4CCOCC4)cc3C(=O)N([C@H](C)CO)C[C@H]2C)cc1,8.3
CNC[C@@H]1Oc2ccc(NC(=O)C3CC3)cc2CC(=O)N([C@H](C)CO)C[C@@H]1C,-8.4
C[C@H](CO)N1C[C@H](C)[C@H](CN(C)C(=O)Nc2ccc(F)cc2)Oc2ccc(NS(=O)(=O)c3ccc(Cl)cc3)cc2C1=O,10.8
COc1ccc(C2C3CCc4ccccc4C3=NN2C(=O)c2cccs2)cc1 (centres undefined),34.7
CCc1ccccc1NC(=O)CSc1nnc(-c2cccc(OC)c2)n1C,14.6
# Later entries:
SMILES,NOMO-1 viab
C[C@H]1CN([C@@H](C)CO)C(=O)Cc2cc(NC(=O)c3ccncc3)ccc2O[C@@H]1CN(C)S(=O)(=O)c1cn(C)cn1,9.2
CC(=NC1CC1)c1c(C)[nH]n(-c2nc3ccccc3s2)c1=O,53.6
Cc1ccc(S(=O)(=O)N(CC(=O)N(C)C)c2cccc([N+](=O)[O-])c2)cc1,21.2
Cc1cc2ccccc2n2c(SCC(N)=O)nnc12,21.4

# A draw from above in order of molar mass, descending.
SMILES,NOMO-1 viab
C[C@H]1CN([C@@H](C)CO)C(=O)Cc2cc(NC(=O)c3ccncc3)ccc2O[C@@H]1CN(C)S(=O)(=O)c1cn(C)cn1,9.2
COc1ccc(C2C3CCc4ccccc4C3=NN2C(=O)c2cccs2)cc1 (centres undefined),34.7
CC(=NC1CC1)c1c(C)[nH]n(-c2nc3ccccc3s2)c1=O,53.6
Cc1cc2ccccc2n2c(SCC(N)=O)nnc12,21.4
